RE007 growth inh = less growth of the S. pombe RE007 Vpr strain | 360,000 compounds, 0.21% hits | S. pombe RE007 Vpr strain, BacTiter-Glo ATP luminescence, 24 h; control for the full effect not named in the record | Potency, µM (series often up to 92.2 µM), for the others: top-dose activity change, negative = less growth | AID 651644; active = well fitted falling curve with a large enough effect; inconclusive = small, poorly fitted or top-dose-only effect; inactive = no such curve, though single readings can be large or run the other way;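 note: % is set by controls: 0 for no effect and ±100 for the full control effect; nearly all actives have a fitted effect of over 50% in size; the assay follows cell death caused by Vpr and the record does not say whether a fall means rescue or toxicity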
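Fission yeast strain RE007, carrying one chromosomally integrated HIV-1 vpr copy, was seeded at OD 0.01 in PMG+AL medium with 23 nL pinned compound. After 24 h at 30 °C and 99% humidity, viability was read by BacTiter-Glo luminescence.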
Cruzain noTriton = cruzain (T. cruzi) inhibition without detergent | purified cruzain, Z-FR-AMC fluorescence, no detergent | Potency, µM, for inactives: max response, negative = inhibition, hits mostly inhibitors | 200,000 compounds, 2.3% hits;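 note: plate controls were enzyme without inhibitor for no effect and buffer without enzyme for full effect; nearly all actives have a fitted effect of over 40% in size; top concentration of the series not given in the record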
Target sequence (P25779 123-467 limits assumed): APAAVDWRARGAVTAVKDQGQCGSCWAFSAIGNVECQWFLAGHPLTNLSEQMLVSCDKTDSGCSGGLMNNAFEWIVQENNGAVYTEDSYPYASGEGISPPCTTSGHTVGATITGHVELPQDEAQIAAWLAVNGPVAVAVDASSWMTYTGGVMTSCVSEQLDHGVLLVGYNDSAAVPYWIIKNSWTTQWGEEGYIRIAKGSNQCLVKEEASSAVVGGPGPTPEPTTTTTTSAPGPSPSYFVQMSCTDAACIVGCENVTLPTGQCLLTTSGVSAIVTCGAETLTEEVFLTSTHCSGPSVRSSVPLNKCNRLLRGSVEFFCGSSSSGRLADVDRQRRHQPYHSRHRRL
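Detergent-free condition (0.00005% Triton X-100) in acetate buffer pH 5.5 with DTT. 1.5 nM enzyme and compound were pre-mixed 15 min, then 2 uM Z-FR-AMC substrate added; reaction progress from fluorescence change between first and third reads (60 s).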
MARV entry inh = inhibitors of Marburg virus binding or cell entry; Marburg virus pseudotyped entry inhibition, cell reporter; control for the full effect not named in the record; about a third of the inactives were read at about 46 µM; Potency, µM (titrated, usually from 37.8 µM), for inactives: at the highest dose activity change, negative = inhibition, usual class: inhibitors; 300,000 compounds, 1.8% hits; AID 540276; active = well fitted inhibition curve with a large enough effect; inconclusive = small, poorly fitted or top-dose-only effect, or effect the other way; inactive = flat fitted curve, though single readings scatter; tested in HEK293 cells; about a fifth of its hits are not listed in these tables; note: % is set by controls: 0 for no effect and ±100 for the full control effect; luciferase read-out
StopGo reporter = lowers the luciferase signal of an FMDV 2A StopGo reporter; 410,000 compounds, 1.2% hits; human cells with a luciferase reporter of 2A StopGo recoding; control for the full effect not named in the record; AID 1159524; Potency, µM (titrated, usually from 57.9 µM), for inactives: top-dose signal change, negative = less light; active = well fitted falling curve with a large enough effect; inconclusive = small, poorly fitted or top-dose-only effect; inactive = no such curve, though single readings can be large or run the other way; tested in HEK293T cells; note: % is set by controls: 0 for no effect and ±100 for the full control effect; nearly all actives have a fitted effect of over 45% in size; luciferase light after 4 h
LASV entry inh = Lassa virus entry inhibition; Lassa virus pseudotype entry inhibition, cell reporter; control for the full effect not named in the record; Potency, µM (titrated, usually from 37.9 µM), without a hit: at the top dose activity change, negative = inhibition, most hits filed as inhibitors; 300,000 compounds, 1.2% hits; AID 540256; active means well fitted inhibition curve with a large enough effect; inconclusive means small, poorly fitted or top-dose-only effect, or effect the other way; inactive means flat fitted curve, though single readings scatter; tested in HEK293 cells; note: % is set by controls: 0 for no effect and ±100 for the full control effect; nearly all actives have a fitted effect of over 50% in size; luciferase read-out
Cruzain inh Det = inhibitors of Trypanosoma cruzi cruzain with detergent; purified cruzain, Z-FR-AMC fluorescence, 0.01% Triton; Potency, µM, inactives show max response, negative = inhibition, actives largely listed as inhibitors; P25779; 200,000 compounds, 0.43% hits; AID 1478;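 note: plate controls were neutral wells for no effect and buffer without enzyme for full effect; nearly all actives have a fitted effect of over 40% in size; top concentration of the series not given in the record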
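In this qHTS format, compounds are incubated with 1.5 nM cruzain for 15 min at room temperature before 2 uM Z-FR-AMC is added. Release of AMC is followed at 360/450 nm, and progress is taken as the 60 s fluorescence difference.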
NS1 inh = inhibitors of influenza NS1 protein function; S. cerevisiae slowed by influenza A NS1, growth recovery by OD600; Potency, µM (titrated, usually from 46.1 µM), for inactives: at the top dose activity, positive = more growth; 270,000 compounds, 0.4% hits; AID 2326; active means well fitted rising curve with a large enough effect; inconclusive means small, poorly fitted or top-dose-only effect; inactive means no such curve, though single readings can be large or run the other way; note: nearly all actives have a fitted effect of over 50% in size
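S. cerevisiae expressing influenza A NS1, grown in glucose, washed, then diluted 1:100 into pH 6.0 -URA galactose medium with 23 nl compound. Growth recovery read as OD600; NS1-free strain serves as control.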
SARS PLP yeast = inhibitors of SARS-CoV papain-like protease in yeast. S. cerevisiae expressing SARS-CoV PLpro, growth rescue; control for the full effect not named in the record. Potency, µM (highest dose often 32.9 µM), without a hit: top-dose activity, positive = growth rescue. 330,000 compounds, 0.19% hits. AID 485353; active means well fitted rising curve with a large enough effect; inconclusive means small, poorly fitted or top-dose-only effect; inactive means no such curve, though single readings can be large or run the other way; note: 0% is about no effect; nearly all actives have a fitted effect of over 55% in size; growth read by luminescence after 48 h
Numbers without * were called inactive; ? = inconclusive; nt = not tested or not shown; & = joins results of further samples; [ ] = another dose, or the depositor's remark. Unless noted, calls come from the whole dose curve; as a rule, active = well fitted curve in the direction sought with a large enough effect; inconclusive = small, poorly fitted or top-dose-only effect, or another doubt; inactive = no such curve, though single readings can be large; an effect the other way counts as inactive or inconclusive. Potency is the fitted concentration of half-maximal effect.

SMILES	RE007 growth inh	Cruzain noTriton	MARV entry inh	StopGo reporter	LASV entry inh	Cruzain inh Det	NS1 inh	SARS PLP yeast
Cc1cccc2cc(/C=C3\N=C(c4ccccc4)OC3=O)c(N3CCOCC3)nc12	7%	?	-14%	?	11%	-6.1%	4%	-5%
Cc1ccc(C)c(N2CCN(S(=O)(=O)c3ccc4c(c3)n(C)c(=O)c(=O)n4C)CC2)c1	nt	6%	11%[46.1 µM]	-15%	-20%[46.1 µM]	0.4%	nt	nt
COc1ccccc1-c1nnc(SCc2nc3ccccc3[nH]2)n1C	-12%	-20%	9%	nt	-18%	3.1%	11%	1%
CCN(CC)S(=O)(=O)c1ccc(N2CCOCC2)c(NC(=O)c2ccc(OC)c([N+](=O)[O-])c2)c1	2%	nt	nt	-8%	nt	nt	-5%	-4%
O=C(O)c1cc2sccc2s1	-9%	-7%	-2%&-2%[46.1 µM]	-15%	0%	2.0%	-46%	-4%
O=C1CSC(=Nc2ccccc2Cl)N1	-12%	-1%	8%	22%	17%	2.4%	2%	2%
CCc1noc(C)c1C(=O)Nc1nc(-c2ccccc2)cs1	-21%	nt	-17%[46.1 µM]	6%	15%	nt	nt	3%
Cc1ccc(S(=O)(=O)N2CCOC2C(Cl)(Cl)Cl)cc1 (stereo not drawn)	-5%	nt	nt	-26%	nt	nt	-11%	-2%
COc1cc(C(=O)NCCOc2ccccc2)cc(OC)c1OC	5%	nt	-2%	38%[activator]	14%	nt	-1%	2%
Cc1cc(C)c(NC(=O)C(C)(C)C)c(Cl)c1	3%	-1%	0%	0%	1%	2.5%	5%	2%
O=c1cc(C(F)(F)F)[nH]c2c(C(F)(F)F)cccc12	-9%	-27%	?	?	?	-11%	-59%	-79%
CC1(C)Cc2c(cnn2-c2ccccc2)C(NC(=O)CCc2ccncc2)C1 (stereo not drawn)	3%	nt	12%	-22%	6%	nt	-4%	1%
Cc1nnc2sc(-c3csc4c3CCCC4)nn12	-19%	-3%	-4%	12%	-8%	-3.4%	-98%	1%
CCOC(=O)COc1nc2c(c(-c3ccco3)c1C#N)CCc1ccccc1-2	7%	nt	-22%[46.1 µM]	-24%	-14%	nt	-6%	1%
COc1cc2[nH]c(=O)n(CCCCCC(=O)NCCCN3CCOCC3)c(=O)c2cc1OC	11%	1%	7%	?	7%	-0.1%	?	1%
Clc1ccc(-c2n[nH]c3c2CCCC3)cc1	-27%	nt	0%[46.1 µM]	42%[activator]	16%	nt	nt	-11%
CCN(CC(=O)Nc1ccc(NC(C)=O)cc1)C(=O)C1CCC1	2%	nt	7%[46.1 µM]	-11%	-1%	nt	nt	2%
Cc1ccc(S(=O)(=O)CC(=O)Nc2ccccn2)cc1	-3%	nt	-20%[46.1 µM]	-2%	1%[46.1 µM]	nt	5%	2%
Cc1c(C(=O)NCc2ccccc2Br)oc2ccc3c(c12)C(=O)CC(C)(C)O3	nt	-8%	?	27%	nt	-5.1%	nt	nt
Cn1nc(C(=O)OCC(=O)NCCc2ccccc2)c2ccccc2c1=O	-5%	nt	nt	-1%	nt	nt	-16%	-2%
COc1ccc(CCNC(=O)C2CCN(C(=O)N(C)C)CC2)cc1OC	-1%	-7%	16%	nt	-8%	6.1%	-3%	7%
Cc1nc(-c2ccc3c(c2)OCCCO3)cs1	-10%	nt	-17%	16%	?	nt	-5%	-1%
CCc1c(C(=O)NNC(=S)NC2CCCCC2)csc1C	23%	nt	4%	51%[activator]	5%[46.1 µM]	nt	3%	1%
Cc1ccc(Cn2cc(C=O)c(-c3ccc(F)cc3)n2)cc1	-4%	nt	nt	14%	nt	nt	-5%	-4%
Fc1ccccc1NC(=S)Nc1cccnc1	-5%	nt	4%[46.1 µM]	13%	?	nt	3%	1%

An excerpt of these results, with bars between the fields.
canonical_smiles | RE007 growth inh | Cruzain noTriton | MARV entry inh | StopGo reporter | LASV entry inh | Cruzain inh Det | NS1 inh | SARS PLP yeast
O=c1cc(C(F)(F)F)[nH]c2c(C(F)(F)F)cccc12 | -9% | -27% | ? | ? | ? | -11% | -59% | -79%
CC1(C)Cc2c(cnn2-c2ccccc2)C(NC(=O)CCc2ccncc2)C1 (stereo not drawn) | 3% | nt | 12% | -22% | 6% | nt | -4% | 1%
Cc1nnc2sc(-c3csc4c3CCCC4)nn12 | -19% | -3% | -4% | 12% | -8% | -3.4% | -98% | 1%
CCOC(=O)COc1nc2c(c(-c3ccco3)c1C#N)CCc1ccccc1-2 | 7% | nt | -22%[46.1 µM] | -24% | -14% | nt | -6% | 1%
COc1cc2[nH]c(=O)n(CCCCCC(=O)NCCCN3CCOCC3)c(=O)c2cc1OC | 11% | 1% | 7% | ? | 7% | -0.1% | ? | 1%
Clc1ccc(-c2n[nH]c3c2CCCC3)cc1 | -27% | nt | 0%[46.1 µM] | 42%[activator] | 16% | nt | nt | -11%
CCN(CC(=O)Nc1ccc(NC(C)=O)cc1)C(=O)C1CCC1 | 2% | nt | 7%[46.1 µM] | -11% | -1% | nt | nt | 2%
Cc1ccc(S(=O)(=O)CC(=O)Nc2ccccn2)cc1 | -3% | nt | -20%[46.1 µM] | -2% | 1%[46.1 µM] | nt | 5% | 2%
Cc1c(C(=O)NCc2ccccc2Br)oc2ccc3c(c12)C(=O)CC(C)(C)O3 | nt | -8% | ? | 27% | nt | -5.1% | nt | nt
Cn1nc(C(=O)OCC(=O)NCCc2ccccc2)c2ccccc2c1=O | -5% | nt | nt | -1% | nt | nt | -16% | -2%

Going on with the list.
SMILES	RE007 growth inh	Cruzain noTriton	MARV entry inh	StopGo reporter	LASV entry inh	Cruzain inh Det	NS1 inh	SARS PLP yeast
Cc1ccc(NC(=O)CSc2ccc(Br)cc2)cc1S(=O)(=O)N1CCOCC1	-11%	nt	?	?	?	nt	nt	nt
O=C(COC(=O)c1n[nH]c(=O)c2ccccc12)c1ccc(Br)cc1	1%	nt	0%[46.1 µM]	-6%	2%	nt	-4%	0%
Cc1ccc(S(=O)(=O)N2CCN(C(=O)COC(=O)/C=C/c3cccc([N+](=O)[O-])c3)CC2)c(C)c1	4%	nt	-22%	-30%	5%	nt	nt	nt
COC(=O)c1cccc(NC(=O)N2C[C@H]3C[C@@H](C2)c2cccc(=O)n2C3)c1	1%	nt	nt	-12%	nt	nt	1%	3%
CCS(=O)(=O)Nc1ccc(C(=O)CC2(O)C(=O)Nc3ccccc32)cc1 (stereo not drawn)	-18%	-10%	2%	11%	16%	-1.0%	0%	0%
COc1ccccc1NC(=O)CSc1ccc(-c2ccco2)nn1	-1%	nt	-17%	-2%	2%	nt	-22%	-1%
O=C(COC(=O)/C=C/c1ccccc1)NC1CCCCC1	2%	nt	?	-12%	-13%	nt	nt	-2%
CC1CCN(C(=O)Cn2cc(C(=O)C3CC3)c3ccccc32)CC1	2%	-4%	3%	12%	0%	-3.5%	7%	-6%
CC(=O)c1ccc(NC(=O)COC(=O)CCC(=O)c2cccs2)cc1	7%	-1%	18%	-10%	-12%	-1.0%	-2%	-2%
COCCCNC(=O)c1ccc(Cn2c(=O)c3ccccc3n(CC(=O)NCCc3ccc(OC)c(OC)c3)c2=O)cc1	10%	nt	?	-25%	-13%	nt	nt	6%
O=C(Nc1cc(Cl)c(O)c(Cl)c1)C1CCCO1 (stereo not drawn)	-9%	5%	3%	nt	16%	1.6%	-8%	15%
Nc1c(-c2cccs2)cnn1-c1nc(-c2ccc(F)cc2)cs1	-8%	-21%	10%	54%	0%	5.7%	6%	-1%
COc1ccc(CNC(=O)c2ccc(Cl)c(NC3=NC4CS(=O)(=O)CC4S3)c2)cc1 (stereo not drawn)	8%	nt	nt	1%	nt	nt	2%	1%
Cc1nc(C)c(C(=O)N/N=C/c2c[nH]c3ccccc23)s1	2%	13%	?	-2%	-15%	5.7%	0%	1%
COc1ccc(-c2c(-c3ccccc3OC)sc3ccccc23)cc1	-14%	nt	nt	-21%	nt	nt	11%	-2%
COC(=O)c1cc(C)nc2c1c(=O)nc(SCc1ccccc1C)n2C1CC1	nt	-10%	nt	-16%	?	-1.3%	nt	nt
Cc1ccc(/C=N/OC(=O)c2nn(C)cc2Cl)cc1	-10%	nt	-2%[46.1 µM]	67%[activator]	26%	nt	nt	-6%
O=C(N/N=C/c1ccc(OC(=O)c2ccc(Br)cc2)cc1)c1ccncc1	-5%	nt	20%[46.1 µM]	26%	-10%	nt	10%	3%
COc1ccc(NC(=O)CC2C(=O)N(c3ccccc3)C(=O)N2CCC2=CCCCC2)cc1 (stereo not drawn)	nt	6%	?	10%	-28%[46.1 µM]	-4.4%	nt	nt
Nc1nc(CSc2nnnn2-c2ccccc2)nc(N2CCCc3ccccc32)n1	-5%	24%	?	28µM*	?	-5.4%	-61%	-3%
Cc1c(Cl)cccc1NC(=S)N1CCN(c2ccc([N+](=O)[O-])cn2)CC1	15%	nt	nt	-5%	nt	nt	5%	3%
COc1ccc(CN(Cc2ccco2)c2cnc(S(C)(=O)=O)nc2C(=O)Nc2ccc(C)c(C)c2)cc1	nt	20µM*	?	-1%	?	-2.6%	nt	nt
COc1ccc(CN(CCO)CCO)cc1[N+](=O)[O-]	3%	2%	2%	-4%	13%	0.6%	6%	9%
Cc1cccc(-n2c(C)nc3c(cnn3-c3ccc(F)cc3)c2=O)c1	25%	-5%	?	-25%	-6%	-3.8%	-55%	-6%
O=C(CCC1CCCCC1)NNC(=O)c1cnccn1	?	-4%	6%	-17%	1%	-1.7%	5%	?
CCOC(=O)c1cc(-c2ccc(OC)cc2)n(CCC(=O)Nc2cccc(C)c2C)c1C	nt	0%	nt	-9%	-27%[46.1 µM]	-2.1%	nt	nt
COc1ccccc1NC(=O)C1=C(C)NC2=C(C(=O)CC(c3ccc(OC)c(OC)c3)C2)C1c1coc2ccccc2c1=O (stereo not drawn)	29%	?	0%&-24%	-5%	?	-5.3%	29%	-29%

Random draw from the library (roughly 4.7% active in at least one column).
